Mtb hypoxia rep: PubChem AID 1159583; hit rate 0.1% among 300,000; fluorescence inhibition, % (test concentration not listed); M. tuberculosis hypoxia-regulated fluorescent reporter, fluorescence;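 active = 35 to 45% if threefold the growth effect, above 45% if 1.5-fold the growth effect; inactive = the rest, general growth blockers included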;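 also: wells of about 50 µL received 100 nL stock; 0% = vehicle wells and 100% = reference inhibitor wells; whole bacteria with a GFP reporter of the hypoxia response; strong numbers were not always called active; many hits fall short of the cut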
PrP 5UTR inh: inhibition of PrP 5' UTR reporter expression. cell-based PrP 5' UTR mRNA reporter, plate reader. inhibition, % (no concentration beside the values). hit rate 0.35% among 340,000. AID 488862, 2010;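 active = every replicate at 50% or more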;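 also: 0 = median of the neutral control wells; tested in H4 reporter cells; numbers are from one replicate; inactives centre near -14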
ugtP null kill: growth inhibition of ugtP-null S. aureus, primary screen, RN4220 ugtP deletion, OD600 | 16 h; some inactives read as strong as hits | growth inhibition, % (test concentration not listed) | hit rate 0.54% among 330,000 | AID 1259309, 2017;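 active = z-score under -3 and OD600 up to 0.15 on both plates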;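 also: plate controls were untreated wells for no effect and antibiotic for full effect; wells of about 80 µL received 100 nL stock; the first replicate is given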
Sa RN4220 lethal: growth inhibition of S. aureus RN4220, primary screen, OD600. hit rate 0.33% among 330,000. inhibition, % (concentration not given with the values). AID 1259311, 2017. 16 h;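 active = z-score of -3 or lower and OD600 up to 0.18 on both plates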;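 also: plate controls were untreated cells for no effect and reference antibiotic for full effect; stock transfer was 100 nL into about 80 µL; one replicate is shown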
Bead autofluor: counter-screen for toxin protease inhibitors: compound fluorescence. compound autofluorescence counterscreen, microsphere flow cytometry; active compounds read high. fluorescence intensity (test concentration not listed). hit rate 3.1% among 360,000. AID 624483;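 active = at least 3 SD above the mean of all compounds, about 16000 in these data; inconclusive = too few beads counted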;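 also: 100 nL of 1 mM stock went into each well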
BJeLR lethal: MLPCN primary cell-based screen for lethality selective to Ras in HRASV12 cells | BJeLR (HRASV12) viability, CellTiter-Glo ATP luminescence, 48 h; reference of the scale not given here | inhibition, % (test concentration not listed) | hit rate 0.17% among 300,000;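 active = replicate mean above 50%; inconclusive = above 50% but judged a plate artefact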;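 also: 50 nL library stock added to about 25 µL; numbers are from one replicate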
Mtb hypoxia rep growth: further read-out of Mtb hypoxia rep, marked with its call; growth inhibition, %; measured here: M. tuberculosis growth (absorbance);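 0% = vehicle and 100% = reference antibiotic; read after six days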
* hit, by the source's call; ? = inconclusive; · = not tested or not shown.

Order of values: Mtb hypoxia rep | Mtb hypoxia rep growth | PrP 5UTR inh | ugtP null kill | Sa RN4220 lethal | Bead autofluor | BJeLR lethal
1: COc1ccc(CCNS(=O)(=O)c2ccc(-c3ccc(=O)[nH]n3)o2)cc1OC
→ 3 | 8 | -14 | 2 | 0.5 | 5999 | 4
2: Cc1cc(C)c2c(N)c(C(=O)NCC3CCCCC3)sc2n1
→ · | · | -67 | -7 | 1.4 | 2578 | -3
3: CCOc1ccc(N2C(=O)CC(SCc3nc4ccccc4[nH]3)C2=O)cc1 (stereo unspecified)
→ -1 | 17 | 3 | 2 | 2.2 | 4903 | 2
4: CCn1ccc(C(=O)Nc2cccc(Cl)c2)n1
→ -5 | -1 | -110 | 5 | 8.4 | 2063 | 8
5: Cc1ccc(-c2cc(N)nc(-c3ccccc3)c2)cc1
→ -4 | 4 | -67 | 36 | 9.5 | 5117 | -7
6: CCOc1ccc2nc(NC(=O)C3CCN(c4cnccn4)CC3)sc2c1
→ 2 | 12 | -3 | 53 | 7.4 | 4355 | 1
7: O=C(c1cc2cc(Cl)ccc2oc1=O)N1CCOCC1
→ · | · | -19 | 1 | 0.8 | 4295 | -8
8: Cc1cc(=O)[nH]c(/N=C(\N)Nc2cccc3ccccc23)n1
→ · | · | -22 | · | · | 3143 | -5
9: CC1Cc2ccccc2N1CC(=O)Nc1ccc2c(c1)OC(F)(F)O2 (stereo unspecified)
→ 4 | 5 | -11 | -7 | -5.2 | 10327 | 6
10: O=C(COc1ccccc1)N1CCN=C1SCc1ccccc1
→ 6 | 3 | -4 | 1 | 4.0 | 4078 | 7
11: CCOc1cc(/C=C2\C(=O)NC(=O)N(CCc3ccc(F)cc3)C2=O)ccc1O
→ · | · | -14 | · | · | 3485 | -2
12: O=C(COC(=O)C12CC3CC(CC(Br)(C3)C1)C2)N1CCOCC1
→ -7 | 5 | -15 | 0 | 2.6 | 4167 | -8
13: COc1cc(/C=C2\C(=O)NC(=O)N(CCc3ccc(F)cc3)C2=O)ccc1O
→ 4 | -4 | -3 | -1 | -0.5 | 2087 | 1
14: Cc1ccc(Cn2c(SCCN3CCCCC3)nc3c2c(=O)n(C)c(=O)n3C)cc1
→ · | · | -6 | 3 | 0.1 | 2053 | 6
15: CCOc1ccccc1NC(=O)CCc1ccc(C)o1
→ · | · | 1 | 2 | 1.7 | 4965 | 11
16: CCN(CC)Cc1csc(C(N)=O)c1
→ 4 | 2 | -16 | 1 | 0.8 | 4579 | -8
17: Cc1ccc(C(=O)NCCc2nnc3ccc(SCC(=O)N4CCCC4)nn23)cc1
→ 4 | 0 | -6 | 2 | 4.1 | 4938 | 6
18: CCCn1c(N2CCC(Cc3ccccc3)CC2)nc2c1c(=O)[nH]c(=O)n2C
→ · | · | -9 | 12 | -0.7 | 3671 | 4
19: O=C(COC(=O)CCc1ccccc1)NC12CC3CC(CC(C3)C1)C2
→ 1 | -5 | -10 | 12 | 7.9 | 3644 | -7
20: CCN(CC)S(=O)(=O)c1ccc(C(=O)/C=C/c2ccc(-c3ccc([N+](=O)[O-])cc3)o2)cc1
→ -1 | -4 | -31 | -7 | 4.6 | 4161 | 18
21: CC(C)CNC(=O)C1CCN(S(=O)(=O)c2ccc3c(c2)OCCO3)CC1
→ -4 | 5 | -2 | -1 | 1.8 | ? | 0
22: CCc1ccccc1NC(=O)CNC(=O)CCNC(=O)Nc1ccccc1
→ 12 | 7 | -26 | 5 | 2.3 | 3904 | ·
23: CC/C(=C\c1ccc(N(C)C)cc1)c1ccncc1
→ 23 | 11 | -31 | 11 | 3.0 | 3364 | ·
24: O=C(N/N=C\C=C\c1ccco1)c1cncc(Br)c1
→ · | · | -25 | · | · | 4085 | -2
25: O=C1NCCCCC1NS(=O)(=O)c1ccccc1 (stereo unspecified)
→ 10 | 4 | -9 | 6 | 1.8 | 2753 | -2
26: N/C(=N\N=C\c1ccco1)SC1CC(=O)N(c2ccccc2)C1=O (stereo unspecified)
→ · | · | -23 | · | · | 3874 | -1
27: COc1cccc(/C=N/c2oc(-c3ccccc3)cc2C#N)c1O
→ · | · | -13 | · | · | 8465 | 1
28: COC(=O)c1ccc2c(=O)n(Cc3ccc(C(=O)NC4CCCC4)cc3)c(=S)[nH]c2c1
→ 5 | -2 | -22 | 0 | 0.7 | 2007 | 1
29: CCN(C(=O)c1ccc(NC(=O)c2ccco2)cc1)c1ccccc1
→ 8 | -2 | -9 | 4 | 1.3 | 6036 | 2
30: COc1cc(NS(=O)(=O)c2c(C(=O)N3CCOCC3)c(C)n(C)c2C)cc(OC)c1OC
→ 7 | 8 | -17 | 4 | 0.9 | 5209 | -5
31: O=C(CSc1nnc(NC(=O)c2ccccc2)s1)NCC1CCCO1 (stereo unspecified)
→ -1 | 11 | -12 | 0 | -6.4 | 5604 | -2
32: CCOC(=O)C(C#N)=CN1CCN(C(=O)CCCl)c2ccccc21
→ 7 | 8 | -20 | 3 | 2.7 | 3695 | ·
33: CCOc1ccccc1NC(=S)N1CCC(c2nc3ccccc3o2)CC1
→ -10 | 0 | -16 | 1 | 4.2 | 2158 | -6
34: O=C(CSc1ccc(S(=O)(=O)N2CCCC2)cn1)Nc1ccc([N+](=O)[O-])cc1C(F)(F)F
→ 2 | -4 | -16 | -2 | 8.1 | 3069 | ·
35: COc1ccc(/C=C/C(=O)NCC(=O)N/N=C(/C)c2ccco2)cc1
→ · | · | -11 | · | · | 4276 | -5
36: COCCCN1C2=C(C(=O)CC(C)(C)C2)C(c2ccc(O)c(OC)c2)C2=C1CC(C)(C)CC2=O
→ 4 | -4 | -34 | 10 | -0.7 | 3114 | -9
37: NS(=O)(=O)c1ccc(N/C=C\C(=O)c2ccc(F)cc2)cc1
→ 9 | -2 | -122 | -1 | 17 | 3191 | -22
38: COc1cc(OC)cc(C(=O)Nc2ccc(S(=O)(=O)Nc3cnc4ccccc4n3)cc2)c1
→ 16 | 6 | · | 11 | 7.9 | 3767 | -7
39: COCC(=O)N(Cc1cc2ccccc2[nH]c1=O)c1ccccc1OC
→ 13 | 10 | -10 | 3 | 5.9 | 3271 | 7
40: COc1ccc(C(=O)c2oc3ccc(OC)cc3c2N)cc1
→ 3 | 4 | -71 | -12 | 4.9 | 5676 | 6
41: CCOC(=O)c1c(C)[nH]c(C)c1S(=O)(=O)N(C)CC(=O)Nc1cccc(C)n1
→ -4 | -4 | -20 | 12 | 6.2 | 5467 | 7
42: CCc1ccc(NC(=O)C(=O)NNC(=O)COc2cccc(OC)c2)cc1
→ -5 | 2 | -24 | 0 | -1.0 | 2283 | 4
43: COc1ccc(CN(CCCN2CCOCC2)C(=O)Nc2ccccc2)cc1OC
→ 4 | 2 | -10 | 23 | 12 | 22584* | 2
44: COc1ccc(NCC(=O)Nc2cccc(S(=O)(=O)N3CCCC3)c2)cc1Cl
→ 6 | 2 | -10 | -3 | 0.8 | 4071 | ·
45: O=C(COC(=O)c1ccc(S(=O)(=O)NCc2ccco2)cc1)c1ccccc1
→ -5 | 0 | -12 | 8 | 8.3 | 2527 | 7
46: N/C(=N\OC(=O)c1cccc(Br)c1)c1ccncc1
→ 4 | -4 | -18 | 4 | 3.8 | 2031 | -3
47: COc1cc(C2c3c(oc4cc(C)c(C)cc4c3=O)C(=O)N2c2cc(C)ccn2)ccc1O (stereo unspecified)
→ 2 | 10 | -18 | 2 | -0.5 | 3495 | -13
48: CSc1nsc(SCC(=O)NCc2ccc(C)cc2)n1
→ -3 | -5 | -25 | 6 | -3.0 | 3691 | 1
49: CN(C)C=Nc1nc2nccc(-c3cccnc3)n2n1
→ 5 | -6 | · | 4 | 5.1 | · | ·
50: C/C(N)=C(/C#N)C(=O)CSc1nc2cc(Cl)ccc2s1
→ -7 | 6 | -8 | -18 | -4.7 | 24839* | -3
51: Cc1ccc(CN2CC(C(=O)N3CCN(S(=O)(=O)c4c(F)cccc4F)CC3)CC2=O)cc1 (stereo unspecified)
→ -15 | 0 | 2 | 1 | -2.1 | 7163 | 5
52: Nc1cc(=O)[nH]c(=O)n1-c1cccc(F)c1
→ 12 | 2 | -37 | -1 | 6.9 | 2155 | -6
53: COC(=O)c1ccccc1NC(=O)C(CCS(C)(=O)=O)NC(C)=O (stereo unspecified)
→ · | · | -11 | 10 | 7.0 | 2255 | -3
54: COc1ccc(CNCC2COc3ccccc3O2)cc1 (stereo unspecified)
→ 0 | 3 | -21 | -2 | 0.4 | 3949 | -4
55: Cc1ccc(C)c(S(=O)(=O)N2CCN(C(=O)CN3C(=O)C4CC=CCC4C3=O)CC2)c1 (stereo unspecified)
→ 0 | -2 | -4 | 4 | 2.9 | 4578 | ·
56: CC(NC(=O)c1ccc(N2CCCC2)c([N+](=O)[O-])c1)c1ccc(S(N)(=O)=O)cc1 (stereo unspecified)
→ 13 | -8 | -4 | 10 | 1.8 | 5584 | 4
57: COc1ccc(CNC(=O)c2c(O)c3cccc4c3n(c2=O)CCC4)cc1OC
→ 9 | 8 | 0 | -5 | -13 | · | -7
58: COc1cc(OC)cc(C(=O)OCc2cc3ccccc3[nH]c2=O)c1
→ · | · | 0 | 7 | 5.8 | 4285 | -13
59: Cc1ccc(C2CC(c3ccco3)n3nc(N)nc3N2)cc1 (stereo unspecified)
→ · | · | -2 | 7 | 2.4 | 4471 | -3
60: COC(=O)CCCCCN1C(=O)/C(=C\c2ccncc2)SC1=S
→ 8 | 18 | 23 | -7 | 4.7 | 5669 | -14

Later entries.
Order of values: Mtb hypoxia rep | Mtb hypoxia rep growth | PrP 5UTR inh | ugtP null kill | Sa RN4220 lethal | Bead autofluor | BJeLR lethal
61: O=C(NCCc1ccccc1)c1ccc([N+](=O)[O-])cc1
→ -86 | -17 | -16 | 1 | -0.9 | 4730 | 14
62: O=C(/C=C/c1ccccc1Cl)N1CCN(c2ncccn2)CC1
→ 4 | 6 | -1 | 5 | 2.9 | 2301 | 9
63: O=C(c1ccc(Cn2cc(Br)cn2)o1)N1N=C(C(F)F)CC1(O)C(F)F (stereo unspecified)
→ -1 | 3 | -10 | -10 | 5.8 | 11273 | 1
64: NC(=S)N1OC[C@@H]2COc3ccc4ccccc4c3[C@@H]21
→ 3 | 8 | -12 | -1 | 2.3 | 2576 | 4
65: Cc1c(-c2cccs2)[n+](=O)c2c(n1[O-])CCCC2
→ 15 | 13 | -45 | 2 | -0.9 | 20042* | 9
66: CCOc1ccc(S(=O)(=O)N2CCC(C(=O)NC3CCCCC3)CC2)cc1
→ 3 | 2 | -5 | 6 | -9.4 | 5484 | 0
67: CCCn1c(N=Cc2c[nH]c3ccccc23)nc2ccccc21
→ 1 | 6 | · | 10 | 1.0 | · | ·
68: Cc1sc2nc(C(C)C)nc(SCC(=O)NC3CC3)c2c1C
→ 6 | -9 | -7 | 31 | 3.7 | 3740 | -6

Screening results deposited in PubChem BioAssay by several laboratories.

Random draw from the library; overall some 3.9% were active at least once.
